Assay outcomes: PubChem BioAssay, Broad Institute
AF4-AF9 inh – inhibitors of AF4 peptide binding to AF9, primary screen, biochemical, AlphaScreen, biotin-AF4 peptide, FLAG-AF9, single point | inhibition, % at 10 µM | 350,000 compounds, 0.47% hits | AID 651704, 2012;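 active = every replicate reaching a set inhibition limit, whatever the replicate mean, cut at about 25% in these data; inconclusive = mean inhibition reaches that limit but some replicates miss it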;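 note: 0% = plate neutral control median and 100% = total signal loss; the record names both 10 and 1 µM as test concentration; the first replicate is given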
Target sequence (P42568 whole entry, looked up): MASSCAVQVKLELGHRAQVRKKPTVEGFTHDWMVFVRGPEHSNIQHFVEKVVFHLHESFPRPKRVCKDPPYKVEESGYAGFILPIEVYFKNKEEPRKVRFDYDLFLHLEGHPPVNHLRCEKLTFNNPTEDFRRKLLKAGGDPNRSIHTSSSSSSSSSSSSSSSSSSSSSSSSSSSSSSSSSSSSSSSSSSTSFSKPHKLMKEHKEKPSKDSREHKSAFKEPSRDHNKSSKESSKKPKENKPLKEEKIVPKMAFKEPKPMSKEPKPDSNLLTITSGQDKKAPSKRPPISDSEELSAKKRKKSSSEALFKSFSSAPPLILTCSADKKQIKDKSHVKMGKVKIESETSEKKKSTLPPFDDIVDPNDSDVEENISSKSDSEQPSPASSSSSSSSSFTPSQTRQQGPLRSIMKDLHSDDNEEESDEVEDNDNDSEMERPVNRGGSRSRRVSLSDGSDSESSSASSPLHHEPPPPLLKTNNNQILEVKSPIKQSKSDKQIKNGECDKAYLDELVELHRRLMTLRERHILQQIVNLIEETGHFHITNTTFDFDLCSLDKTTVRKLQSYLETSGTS
Starred values were filed as active, the others as inactive; ? = inconclusive. These rows are one share of the data (hit frequency here may not be typical).

SMILES	AF4-AF9 inh
Cc1ccccc1S(=O)(=O)N1CCCCN2[C@H](CO)[C@H](c3ccc(-c4cccc(F)c4)cc3)[C@H]2C1	6.2
C[C@H]1CN([C@@H](C)CO)C(=O)c2cc(NC(=O)C3CCCCC3)ccc2O[C@H]1CN(C)C(=O)Nc1ccccc1	-14
COc1ccc(C#Cc2ccc([C@H]3[C@H](CO)N4CCCCN(S(=O)(=O)c5cn(C)cn5)C[C@@H]34)cc2)cc1	-0.3
Cc1noc(C)c1S(=O)(=O)Nc1ccc2c(c1)C(=O)N([C@@H](C)CO)C[C@@H](C)[C@@H](CN(C)Cc1ccc(C(F)(F)F)cc1)O2	2.9
C[C@@H]1CN([C@H](C)CO)C(=O)c2cc(NS(=O)(=O)c3ccccc3)ccc2O[C@H]1CN(C)Cc1ccc(C(=O)Nc2ccccc2N)cc1	-0.4
COCCN(C[C@H]1[C@@H](c2ccccc2)[C@H](CO)N1C(C)=O)C(=O)c1ccncc1	-0.1
CC(C)CC#Cc1ccc2c(c1)O[C@@H](CN(C)Cc1cncnc1)[C@H](C)CN([C@H](C)CO)S2(=O)=O	11
COCCCNC(=O)c1cc(S(=O)(=O)N2CCC3(CC2)OCCO3)ccc1F	-5.4
COc1cccc(C(=O)Nc2ccc3c(c2)C(=O)N(C)C[C@@H](OC)[C@@H](C)CN(CCc2ccccc2)[C@@H](C)CO3)c1	4.6
O=C(CN1CCOCC1)NCC[C@H]1CC[C@H](NC(=O)Nc2ccc(Cl)cc2)[C@H](CO)O1	1.6
CCCC#Cc1cnc2c(c1)C(=O)N([C@H](C)CO)C[C@H](C)[C@@H](CN(C)Cc1ccc(F)cc1)O2	1.8
COc1ccccc1C#Cc1ccc([C@H]2[C@H](C#N)N(C(=O)C3CC3)[C@H]2CO)cc1	-0.5
CC(=O)N1[C@@H]2c3ccc(C4=CCCC4)c(=O)n3C[C@H]1[C@H](CO)[C@H]2C(=O)N[C@H](C)c1ccccc1	-2.2
O=C(c1ccncc1)N1CC(=O)N2[C@H](CO)[C@@H](c3ccc(-c4ccccc4)cc3)[C@@H]2C1	0.4
COCC(=O)N1CCCCN2[C@H](CO)[C@@H](c3ccc(-c4cccc(C)c4)cc3)[C@@H]2C1	-4.5
O=C(C[C@@H]1C=C[C@@H](NC(=O)Nc2ccccc2F)[C@@H](CO)O1)NCc1ccccc1	-1.8
Cc1ccc(CSc2nnc(-c3ccccn3)n2Cc2cccs2)cc1	-5.0
C/C=C/c1ccc2c(c1)O[C@@H](CN(C)Cc1ccccc1F)[C@@H](C)CN([C@@H](C)CO)S2(=O)=O	4.1
CC1=C(C(=O)Nc2cc(C(=O)NCc3ccccc3)ccc2C)SCCO1	-5.0
C[C@H](CO)N1C[C@H](C)[C@H](CN(C)C)OCCCC[C@H](C)Oc2ccc(NC(=O)Cc3ccccc3)cc2C1=O	-3.6
Cc1ccc(S(=O)(=O)Nc2ccc3c(c2)C(=O)N([C@@H](C)CO)C[C@H](C)[C@@H](CN(C)S(=O)(=O)c2cn(C)cn2)OCCCC[C@H](C)O3)cc1	0.8
Cn1c(CCC(=O)Nc2ccc(S(C)(=O)=O)cc2)nc2cc(S(=O)(=O)N3CCOCC3)ccc21	-1.1
O=C(C[C@H]1C[C@H]2c3cc(NC(=O)c4ccc5c(c4)OCO5)ccc3O[C@H]2[C@H](CO)O1)NCCN1CCCCC1	5.3
O=C(C[C@@H]1C[C@@H]2c3cc(NC(=O)Cc4ccncc4)ccc3O[C@@H]2[C@@H](CO)O1)NCc1ccccc1	0.2
CCS(=O)(=O)N1CC2(CN(C(=O)c3ccc(F)cc3)[C@@H](CO)c3[nH]c4cc(OC)ccc4c32)C1	-3.5
CS(=O)(=O)N1CCCCC1c1cc(C(=O)Nc2cccc3c2CCCC3)no1 (stereo not given)	2.4
Cc1ccc(S(=O)(=O)Nc2ccc3c(c2)CC(=O)N([C@H](C)CO)C[C@@H](C)[C@H](CN(C)C)O3)cc1	-2.6
C[C@H](CO)N1C[C@H](C)[C@@H](CN(C)S(=O)(=O)c2cn(C)cn2)Oc2ccc(NC(=O)C3CCCCC3)cc2CC1=O	-1.5
Cc1ccccc1S(=O)(=O)N1C[C@H](O)COC[C@H]2O[C@H](CC(=O)N3CCN(C)CC3)CC[C@@H]21	-2.2
COc1ccc2c3c(n(C)c2c1)[C@H](CO)N(C(=O)Nc1ccc(F)cc1)CC31CCN(C)CC1	0.7
OC(c1ccc(Cl)cc1)c1ncc(-c2ccccc2Cl)[nH]1 (stereo not given)	6.9
O=C(C[C@@H]1CC[C@H]2[C@@H](COC[C@@H](O)CN2C(=O)Nc2ccc(Cl)c(Cl)c2)O1)NCc1ccc(Cl)cc1	-0.8
C[C@@H]1CN([C@H](C)CO)S(=O)(=O)c2ccc(C#Cc3ccccc3F)cc2O[C@@H]1CN(C)C(=O)Cc1cccnc1	-3.4
C[C@@H]1CN([C@H](C)CO)C(=O)c2cccc(NC(=O)c3cnccn3)c2O[C@H]1CN(C)C	-2.5
Cn1ccc2c(N3CCCCCC3)cc3c(c21)C1CCC3C1 (stereo not given)	31*
Cc1ccc(S(=O)(=O)Nc2ccc3c(c2)C(=O)N([C@@H](C)CO)C[C@H](C)[C@H](CN(C)S(=O)(=O)c2cn(C)cn2)OCCCC[C@@H](C)O3)cc1	-0.2
C[C@@H]1CN([C@@H](C)CO)C(=O)c2cc(C#C[C@@H](C)O)cnc2O[C@H]1CN(C)C(=O)c1ccncc1	-2.4
CCCNC(=O)N1C[C@H]2[C@@H](c3ccccc31)[C@@H](CO)N2Cc1ccccc1F	-0.1
O=C(C[C@H]1CC[C@@H]2[C@H](COC[C@H](O)CN2Cc2ccc3c(c2)OCO3)O1)N1CCCCC1	-16
COc1cccc(C(O)c2nc(-c3cc4ccccc4o3)cs2)c1 (stereo not given)	-2.1
C[C@@H]1CN([C@H](C)CO)C(=O)Cc2cc(NC(=O)CCC(F)(F)F)ccc2O[C@@H]1CN(C)Cc1ccc(C(F)(F)F)cc1	-1.6
CO[C@@H]1CN(C)C(=O)c2cc(NC(=O)C3CCCC3)ccc2OC[C@@H](C)N(S(C)(=O)=O)C[C@@H]1C	-8.3
COCC(=O)Nc1ccc2c(c1)C(=O)N(C)[C@@H]1CC[C@@H](CC(=O)Nc3ccccc3)O[C@@H]1CO2	1.3
O=C(Nc1ccc(F)cc1)N[C@@H]1CC[C@H](CCNS(=O)(=O)c2cccc(Cl)c2)O[C@H]1CO	-15
CN1CCN(c2ccc(S(=O)(=O)N3CCCCC3)cc2N)CC1	9.6
OC[C@@H]1[C@H](c2ccc(-c3ccccc3F)cc2)[C@@H]2CN(Cc3cccnc3)CCCCN12	-1.1
CCNC(=O)[C@@H]1[C@@H](CO)[C@@H]2Cn3c(ccc(-c4ccc(F)cc4)c3=O)[C@@H]2N1Cc1ccccc1F	3.8
CC(C)C#Cc1ccc2c(c1)O[C@H](CN(C)S(=O)(=O)c1cn(C)cn1)[C@H](C)CN([C@@H](C)CO)S2(=O)=O	1.0
C/C=C/c1cnc2c(c1)C(=O)N([C@H](C)CO)C[C@@H](C)[C@@H](CN(C)C(=O)NC1CCCCC1)O2	-4.2
C[C@@H]1CN([C@@H](C)CO)C(=O)c2cc(C#C[C@@H](C)O)cnc2O[C@H]1CN(C)C(=O)Cc1ccccn1	-4.5
COc1ccc(NC(=O)N(C)C[C@@H]2Oc3ccc(NC(=O)NC4CCCCC4)cc3CC(=O)N([C@H](C)CO)C[C@H]2C)cc1	-2.1
C[C@H](CO)N1C[C@H](C)[C@H](CN(C)C(=O)Nc2ccccc2)OCCCC[C@H](C)Oc2ccc(NS(C)(=O)=O)cc2C1=O	1.5
COc1ccc(S(=O)(=O)N[C@H]2CC[C@H](CCn3cc(-c4cccc(F)c4)nn3)O[C@H]2CO)cc1	-0.8
CN(C)CCNC(=O)c1[nH]c(C(F)(F)F)nc1-c1ccccc1	-0.6
C[C@@H]1CN([C@H](C)CO)C(=O)c2cccc(NS(=O)(=O)c3ccc(F)cc3)c2O[C@@H]1CN(C)C(=O)Nc1ccc2c(c1)OCO2	5.4
C[C@@H]1CCCCO[C@H](CN(C)Cc2ccc(C(=O)O)cc2)[C@@H](C)CN([C@H](C)CO)C(=O)c2cc(NS(C)(=O)=O)ccc2O1	-4.0
C[C@@H]1CN([C@@H](C)CO)C(=O)c2cc(NC(=O)CCN3CCOCC3)ccc2O[C@@H]1CN(C)Cc1ccncc1	-1.8
O=C(NCC1(N2CCCCC2)CCCCC1)c1cccc(S(=O)(=O)Nc2ccccc2Cl)c1	-3.3
CN1c2ccc(-c3ccc(F)cc3)cc2[C@H]2[C@H](CCN2C(=O)Nc2cc(F)ccc2F)[C@H]1CO	-1.8
O=C(NC1CCCCC1)N1CC2(C1)[C@H](c1ccccc1)[C@H](CO)N2CC1CCCC1	-0.7

Shown as a hit in AF4-AF9 inh (from the list above):
SMILES	AF4-AF9 inh
Cn1ccc2c(N3CCCCCC3)cc3c(c21)C1CCC3C1 (stereo not given)	31*

2 neighbouring compounds already listed, quoted:
SMILES	AF4-AF9 inh
C[C@@H]1CN([C@H](C)CO)C(=O)Cc2cc(NC(=O)CCC(F)(F)F)ccc2O[C@@H]1CN(C)Cc1ccc(C(F)(F)F)cc1	-1.6
CO[C@@H]1CN(C)C(=O)c2cc(NC(=O)C3CCCC3)ccc2OC[C@@H](C)N(S(C)(=O)=O)C[C@@H]1C	-8.3

Continuation:
SMILES	AF4-AF9 inh
CC(C)NC(=O)Nc1ccc2c(c1)C(=O)N([C@H](C)CO)C[C@H](C)[C@H](CN(C)S(=O)(=O)c1ccc(Cl)cc1)O2	1.6
COc1ccc2c3c(n(C)c2c1)[C@@H](CO)N(C(=O)c1cccc(F)c1)CC31CCN(C(=O)c2cccc(F)c2)CC1	-1.4
N#C[C@H]1[C@@H](c2ccccc2-c2cccc(F)c2)[C@H](CO)N1C(=O)C1CCC1	-0.8
CCN1[C@@H]2c3ccc(-c4cccnc4)c(=O)n3C[C@@H]2[C@@H](CO)[C@@H]1C(=O)NC1CCCCC1	2.3
O=C(Nc1ncnc2c1ncn2[C@@H]1O[C@H](/C=C/C(=O)N2CCN(c3ccc(F)cc3)CC2)[C@@H](O)[C@H]1O)c1ccccc1	0.9
CCOC(=O)[C@]12CCCC=C1N(Cc1ccco1)C(=O)[C@H](CC(=O)NCc1cccc3ccccc13)C2	1.6
O=C([C@H]1[C@H](CO)[C@H]2Cn3c(cccc3=O)[C@H]2N1CC1CC1)N1CCc2ccccc2C1	0.4
COc1ccc2c3c([nH]c2c1)[C@H](CO)N(C(=O)NC(C)C)CC31CCN(C(=O)c2ccccn2)CC1	1.2
CN(C)C(=O)C[C@H]1C=C[C@H](NC(=O)C2CCC2)[C@H](CO)O1	-1.2
CCC(=O)N(C)C[C@H]1[C@H](c2ccc(C3=CCCC3)cc2)[C@@H](CO)N1C(=O)CC	-0.8
C/C=C/c1ccc2c(c1)O[C@H](CN(C)C(=O)Cc1ccncc1)[C@H](C)CN([C@H](C)CO)S2(=O)=O	-2.9
C[C@@H]1CN([C@@H](C)CO)C(=O)c2cc(N(C)C)ccc2O[C@H]1CN(C)C(=O)Nc1ccc2c(c1)OCO2	-2.7
COc1cccc(C(O)c2nc(-c3cccc(C(=O)O)c3)cs2)c1 (stereo not given)	-3.1
OC[C@@H]1CN(Cc2ccco2)C[C@H](n2cnc3c(N4CCOCC4)ncnc32)O1	-1.3
CCCC#Cc1ccc([C@H]2[C@@H](CO)N3CCCCN(Cc4cncnc4)C[C@@H]23)cc1	8.1
COc1ccc2c3c([nH]c2c1)[C@H](CO)N(C(=O)C1CCCC1)CC31CCN(Cc2nccs2)CC1	0.0
C[C@H](NC(=O)C[C@H]1C=C[C@@H](NC(=O)C2CCC2)[C@H](CO)O1)c1ccccc1	-10
COc1ccc(S(=O)(=O)Nc2ccc3c(c2)C(=O)N([C@H](C)CO)C[C@@H](C)[C@H](CN(C)Cc2ccc(C(=O)Nc4ccccc4N)cc2)O3)cc1	-2.1
CCN1CCC(O)(/C=C/c2ccc(C(C)C)cc2)C(C(=O)/C=C/c2ccc(C(C)C)cc2)C1 (stereo not given)	?
COc1ccc(-c2ccc([C@@H]3[C@H](CO)N4CCCCN(S(=O)(=O)c5cccs5)C[C@@H]34)cc2)cc1	-4.5

Part of the list above, in CSV form:
mol,AF4-AF9 inh
CCN1[C@@H]2c3ccc(-c4cccnc4)c(=O)n3C[C@@H]2[C@@H](CO)[C@@H]1C(=O)NC1CCCCC1,2.3
O=C(Nc1ncnc2c1ncn2[C@@H]1O[C@H](/C=C/C(=O)N2CCN(c3ccc(F)cc3)CC2)[C@@H](O)[C@H]1O)c1ccccc1,0.9
CCOC(=O)[C@]12CCCC=C1N(Cc1ccco1)C(=O)[C@H](CC(=O)NCc1cccc3ccccc13)C2,1.6
O=C([C@H]1[C@H](CO)[C@H]2Cn3c(cccc3=O)[C@H]2N1CC1CC1)N1CCc2ccccc2C1,0.4
COc1ccc2c3c([nH]c2c1)[C@H](CO)N(C(=O)NC(C)C)CC31CCN(C(=O)c2ccccn2)CC1,1.2

The listing continues.
SMILES	AF4-AF9 inh
CC(C)OC(=O)CC(=O)CC(O)c1cccc([N+](=O)[O-])c1 (stereo not given)	1.0
COc1ccc2sc3cccc(NCCN(C)C)c3c(=O)c2c1	19
CCCN1Cc2cccc(C(=O)Nc3ccc(OC)c(OC)c3)c2C1=O	-5.9
CNC(=O)C[C@@H]1CC[C@@H]2[C@H](COC[C@@H](O)CN2C(=O)Nc2cccc(OC)c2)O1	-0.1
C[C@@H](NC(=O)C[C@H]1C[C@H]2c3cc(NC(=O)CN(C)C)ccc3O[C@H]2[C@@H](CO)O1)c1ccccc1	-0.2
CO[C@@H]1CN(C)C(=O)c2cc(NC(=O)C3CC3)ccc2OC[C@@H](C)N(C(=O)c2ccncc2)C[C@H]1C	0.6
CC(C)COC(=O)N(C)C[C@H]1OCc2ccccc2-c2ccccc2C(=O)N([C@@H](C)CO)C[C@H]1C	-3.3
